Assay outcomes from PubChem.
Calb FLC: C. albicans growth inhibition with fluconazole, primary screen, CaCi-2 strain, Alamar Blue fluorescence. C. albicans CaCi-2 (fluconazole-resistant clinical isolate) + fluconazole, 48 h. growth inhibition, % (concentration not given with the values). 300,000 compounds, 0.57% hits. AID 1979, 2009;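 active = most replicates above 75%; inconclusive = exactly half above 75%; inactive = most below 75%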;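 also: all wells also contain fluconazole at 8 µg/ml as a sub-toxic cotreatment; 0% = median of DMSO wells and 100% = median of geldanamycin control wells; wells of about 8 µL received 7.5 nL stock; the first replicate is given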
ALR inh: inhibitors of human ALR sulfhydryl oxidase, primary screen, biochemical, H2O2 detection, HRP-luminol luminescence, single point; FAD-linked sulfhydryl oxidase ALR (Homo sapiens), P55789; purified ALR, DTT oxidation; inhibition, % (concentration not given with the values); 290,000 compounds, 3.8% hits; AID 485317, 2010;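 active = mean and each replicate at 75% or more; inconclusive = only one of the two met; inactive = neither met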;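 also: stock transfer was 7.5 nL into about 7.5 µL; 0% = neutral wells and 100% = wells with inactivated enzyme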
Target sequence (P55789 whole entry, looked up): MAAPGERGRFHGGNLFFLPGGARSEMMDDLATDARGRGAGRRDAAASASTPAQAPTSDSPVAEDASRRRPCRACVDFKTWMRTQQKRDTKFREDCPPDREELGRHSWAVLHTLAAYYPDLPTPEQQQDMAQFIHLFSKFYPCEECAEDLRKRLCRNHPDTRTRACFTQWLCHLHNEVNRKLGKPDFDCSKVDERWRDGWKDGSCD
rRNA inh HTS: reduced GFP signal of wild-type E. coli, primary screen, bacterial rRNA inhibitor project, GFP/RFP fluorescence, OD600, single point | E. coli WT GFP vs humanized-ribosome RFP mutants, 24 h; stronger effect = lower value; DMSO median 0, no signal -100 | GFP signal change (wild-type ribosome), % (no concentration beside the values) | 350,000 compounds, 1.6% hits | AID 720706, 2013;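 active = significant combined selectivity score with lowered wild-type GFP, culture density cut under 30%, mutant RFP and density less affected; inactive = any of these conditions unmet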; also: one replicate is shown; some compounds called inactive have numbers as strong as hits
MLL AF4-AF9 inh: inhibitors of AF4 peptide binding to AF9, primary screen, biochemical, AlphaScreen, biotin-AF4 peptide, FLAG-AF9, single point | 350,000 compounds, 0.47% hits | inhibition, % at 10 µM | AID 651704, 2012;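 active = every replicate reaching a set inhibition limit, whatever the replicate mean, cut at about 25% in these data; inconclusive = mean inhibition reaches that limit but some replicates miss it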;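 also: 0% = plate neutral control median and 100% = total signal loss; the record names both 10 and 1 µM as test concentration; the first replicate is given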
Target sequence (P42568 whole entry, looked up): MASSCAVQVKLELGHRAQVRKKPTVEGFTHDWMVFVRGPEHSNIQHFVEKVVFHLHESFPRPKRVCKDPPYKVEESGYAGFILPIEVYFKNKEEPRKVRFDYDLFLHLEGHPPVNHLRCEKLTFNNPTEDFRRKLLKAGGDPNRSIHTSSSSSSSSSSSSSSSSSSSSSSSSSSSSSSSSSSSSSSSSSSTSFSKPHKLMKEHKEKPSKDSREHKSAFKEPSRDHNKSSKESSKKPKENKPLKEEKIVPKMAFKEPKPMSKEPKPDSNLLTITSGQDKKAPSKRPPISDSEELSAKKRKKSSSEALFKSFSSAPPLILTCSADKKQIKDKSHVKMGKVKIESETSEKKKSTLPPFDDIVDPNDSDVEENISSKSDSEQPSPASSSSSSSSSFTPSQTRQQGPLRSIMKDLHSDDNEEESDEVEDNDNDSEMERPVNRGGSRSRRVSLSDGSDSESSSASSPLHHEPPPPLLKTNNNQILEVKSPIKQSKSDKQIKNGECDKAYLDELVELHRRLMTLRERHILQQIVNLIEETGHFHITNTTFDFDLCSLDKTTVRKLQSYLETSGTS
FGF22 binding: binders of human FGF22 protein, primary screen, FGF22 synaptogenesis inhibitor project, biophysical, thermal shift, single point; recombinant FGF22 thermal shift, SYPRO orange fluorescence; percent of sucrose octasulfate shift, DMSO zero; calls only at 9.99 µM; 340,000 compounds, 1.5% hits; Fibroblast growth factor 22 (Homo sapiens), Q9HCT0;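 active = melting point raised past a set limit in the mean and every replicate; inconclusive = no clear call; three in four hits are not shown here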
Target sequence (Q9HCT0 whole entry, looked up): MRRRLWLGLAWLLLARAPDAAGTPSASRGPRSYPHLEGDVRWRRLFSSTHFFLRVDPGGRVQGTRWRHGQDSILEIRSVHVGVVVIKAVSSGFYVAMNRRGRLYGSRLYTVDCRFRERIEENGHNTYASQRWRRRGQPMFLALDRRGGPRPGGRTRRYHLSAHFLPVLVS
Beta apoptosis: inhibitors of cytokine-induced beta cell apoptosis, primary screen, luminescence; INS-1E cytokine-induced death, ATP luminescence, 48 h; percent of positive-control rescue, neutral wells zero; protection from apoptosis, % (test concentration not listed); 300,000 compounds, 0.8% hits;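 active = all replicates at 75% or more, or half of them and the mean; inconclusive = half reach 75% but not the mean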;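 also: 0% = cytokine-treated negative control wells and 100% = positive control rescue; higher means more ATP so stronger rescue from cytokine killing; wells of about 40 µL received 100 nL stock; the first replicate is given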
T cruzi repl: inhibitors of intracellular T. cruzi growth, primary screen, luminescence, NIH3T3 host cells; T. cruzi beta-gal in NIH3T3, 90 h; inhibition, % (test concentration not listed); 300,000 compounds, 1.4% hits;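 active = mean inhibition across valid replicates above about 55%, limit read from the data; inconclusive = mean below that limit but half or more replicates reach it; inactive = mean below it, under half of replicates reach it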;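 also: signal also drops with host cell toxicity which is not excluded here; 0% = plate median of DMSO wells and 100% = zero luminescence signal; higher percent means less beta-gal luminescence so fewer parasites; stock transfer was 50 nL into about 50 µL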
RanGTP-Imp inh: inhibitors of RanGTP-importin-beta interaction, primary screen, biochemical, FRET, CFP-Ran, YFP-importin-beta, homogeneous; Ran GTPase (GTP-bound) - importin-beta complex; cell-free CFP-Ran/YFP-importin-beta FRET ratio; inhibition, % (concentration not given with the values); 300,000 compounds, 1.1% hits; AID 2216, 2009;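 active = most replicates above 15%; inconclusive = exactly half above 15%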;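 also: 0% = DMSO wells and 100% = Ran loaded with GDP instead of GTP; wells of about 40 µL received 100 nL stock; the first replicate is given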
rRNA inh HTS OD600: recorded beside rRNA inh HTS, whose call it bears; OD600 change, %; measured here: OD600 growth;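 optical density of the mix in the first replicate; 0 = DMSO median and -100 = no signal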
rRNA inh HTS RFP: further read-out of rRNA inh HTS, marked with its call; RFP signal change, %; measured here: RFP humanized mutant strains;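 first replicate; 0 = DMSO median and -100 = no signal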
* = called active by the depositor; i = inactive; ? = inconclusive; . = no result given; + = active, no number.

SMILES | Calb FLC | ALR inh | rRNA inh HTS | rRNA inh HTS OD600 | rRNA inh HTS RFP | MLL AF4-AF9 inh | FGF22 binding | Beta apoptosis | T cruzi repl | RanGTP-Imp inh
CCCCCCC1C(C#N)=C(N)OC2=C1C(=O)CC(C)(C)C2 (stereo not given) | 2.0 | . | 4.9 | 3.6 | 4.7 | -3.4 | i | -4.7 | -11.1 | 0.5
Cc1ccc(Nc2ccc(C(F)(F)F)cc2[N+](=O)[O-])cc1 | 27.2 | -5.3 | 10.8 | 2.2 | -9.8 | -4.7 | i | -9.4 | 5.8 | 0.8
Cc1ccc(-n2sc3ccccc3c2=O)cc1 | 2.1 | 4.5 | . | . | . | . | . | 25.1 | 74.0* | -2.6
COCCN(C(=O)CSc1nc2ccc(Cl)cc2[nH]1)c1c(N)n(Cc2ccccc2)c(=O)[nH]c1=O | 2.1 | -18.7 | 3.4 | -2.4 | 2.6 | 0.0 | i | -7.3 | 1.3 | 1.1
COc1cccc(OCCCCSc2ncccn2)c1 | -2.6 | -16.0 | . | . | . | . | . | 0.7 | -6.2 | ?
Cc1c(S(=O)(=O)N2CCN(c3ccccc3)CC2)c(=O)n(C)c(=O)n1C | -6.5 | 36.0 | 10.3 | -2.7 | -0.9 | 5.5 | i | -7.4 | -10.1 | 2.3
Cn1c(=O)n(C)c2cc(CN3C(=O)OC(C)(C)C3(C)O)ccc21 (stereo not given) | -3.2 | -20.1 | 6.0 | 15.1 | 1.0 | -9.8 | i | . | -15.6 | 3.1
N#CCC(=O)Nc1cc(C(F)(F)F)ccc1N1CCOCC1 | -1.7 | 29.2 | 4.8 | 10.7 | 0.9 | 0.8 | i | -1.9 | 6.1 | -1.5
Cc1onc(-c2ccc3c(c2)OCO3)c1-c1ccc2[nH]ccc2c1 | 11.7 | -0.1 | -17.1 | -21.8 | -17.5 | 1.7 | i | 8.2 | 12.9 | 1.8
CC(=O)N1CC(c2ccccc2)C(c2ccc(Cl)cc2)=N1 (stereo not given) | -3.4 | -5.8 | -4.2 | -9.0 | 2.1 | 11.6 | i | 1.5 | -5.5 | ?
O=C(Nc1ccc2c(c1)OCCO2)C1CCN(C(=O)c2ccc(Cl)cc2)CC1 | -11.4 | -4.7 | . | . | . | . | . | -6.4 | -11.0 | -0.8
COC(=O)c1ccc(COc2ccc(/C=N/O)cc2OC)o1 | -3.1 | -9.4 | -0.6 | -1.2 | -0.4 | 2.7 | i | -5.5 | -0.2 | 6.1
COCCCN1C(=O)C2C(C(=O)Nc3cc(C)cc(C)c3)C3C=CC2(O3)C1C(=O)NC1CCCCC1 (stereo not given) | -2.8 | -3.1 | 4.6 | 5.1 | -0.4 | -5.5 | i | -1.9 | -0.8 | -4.1
COc1cc(/C=N/NC(=O)c2nc3ccccn3c2C)cc(OC)c1O | 0.3 | 99.1* | 7.7 | 7.6 | -1.2 | -1.9 | i | 1.5 | 80.9* | 0.3
CCCNC(=O)N(CCOC)CC1CCCN(C2Cc3ccccc3C2)C1 (stereo not given) | 2.3 | -10.8 | 0.7 | 1.7 | 11.4 | -0.6 | i | -9.5 | 42.2 | 0.7
O=C(c1ccc(F)cc1)C1CCN(S(=O)(=O)c2ccccc2)CC1 | 4.7 | 5.8 | -9.7 | -11.6 | 1.8 | 3.4 | i | 1.5 | -4.1 | 5.2
Cc1cc(CNC(=O)c2ccc3nc(Cc4ccccc4F)oc3c2)nn1C | -1.9 | 1.2 | 1.8 | -2.9 | -1.6 | -2.0 | i | -2.4 | 9.1 | 2.1
O=C(CCSc1nnc2ccccn12)Nc1ccc(F)cc1 | 14.0 | -7.1 | . | . | . | . | . | -3.5 | -4.5 | ?
Cc1cc(C(=O)COC(=O)c2ccc3c(c2)NC(=O)CS3)c(C)n1CCc1ccc(Cl)cc1 | -7.5 | -13.9 | 4.1 | 9.1 | 2.6 | 2.0 | . | . | -1.2 | -5.2
CC(C)(C)OC(=O)N1CCC[C@H]1c1nnc(SCC(=O)Nc2ccc(Br)cc2)o1 | -8.5 | -9.4 | 6.6 | 14.9 | 2.2 | 0.4 | i | -3.3 | -9.4 | 3.7
Cc1nc2ccc(NS(=O)(=O)c3ccc(F)cc3)cc2s1 | 28.3 | -9.7 | -20.5 | -28.7 | -1.6 | -1.3 | i | 6.2 | 0.8 | 5.7
CCC(C)(C)n1nnnc1C(c1ccc(C)cc1)N1CCC(C)CC1 (stereo not given) | 13.0 | . | . | . | . | . | . | -6.1 | 8.9 | 0.5
Cn1cccc1Cc1nnc(SCC(=O)NC2CCCCC2)n1CCc1ccccc1 | 1.8 | 4.7 | 4.3 | 5.3 | 0.6 | -2.2 | i | 4.9 | -0.4 | -2.0
CCc1cc2c(CN3CCN(Cc4ccccc4)CC3)cc(=O)oc2cc1O | -14.3 | 0.0 | -10.4 | -33.8 | 0.5 | 12.4 | i | 4.4 | 44.0 | 87.7*
CC(C)CC(=O)Nc1cc(NC(=O)CC(C)C)cc(C(=O)NC(C)(C)C)c1 | -2.3 | -22.8 | . | . | . | . | . | 1.3 | -0.3 | 0.7
Cc1cc(SC(C)C(=O)Nc2c(C)n(C)n(-c3ccccc3)c2=O)nc2ccccc12 (stereo not given) | ? | -3.3 | . | . | . | . | . | -4.7 | -3.5 | -0.3
CCCc1ccc(S(=O)(=O)Nc2ccc(C)c(NS(C)(=O)=O)c2)cc1 | -1.4 | -20.8 | -14.8 | -0.8 | 7.7 | . | i | 3.0 | 2.1 | 2.6
O=C(Cn1nc(Cc2ccncc2)c2ccccc2c1=O)N1CCN(C(=O)c2ccco2)CC1 | -4.4 | -11.8 | 5.7 | -0.1 | -0.3 | 2.9 | i | 0.4 | -9.2 | 1.6
CCN(CC(=O)Nc1cc(Cl)ccc1C)C(=O)Cc1sc(C)nc1-c1ccc(F)cc1 | 8.0 | -4.5 | -3.7 | -12.2 | 1.7 | 1.0 | i | 2.8 | 5.3 | ?
O=C1c2c(O)cc(O)cc2O[C@H](c2ccc(O)cc2)[C@H]1O | -4.9 | 87.3* | -9.4 | -10.4 | -10.6 | -6.7 | i | -9.6 | -5.3 | 4.0
CC(C)(C)CNc1cc(N2CCOCC2)ccc1[N+](=O)[O-] | 5.6 | 0.6 | -20.6 | -13.5 | -3.6 | 5.2 | i | 5.0 | 7.8 | -2.6
CCOC(=O)CSC1=N/C(=C\c2cc(OC)c(OC)c(OC)c2)C(=O)N1C | 0.4 | -7.2 | . | . | . | . | . | -3.9 | 6.7 | 0.4
COc1ccc(C(=O)NCC(c2ccco2)N2CCc3ccccc32)cc1 (stereo not given) | 0.2 | 43.1 | 5.8 | 3.3 | 3.0 | 3.0 | i | 4.9 | -7.9 | 5.3
Cc1onc(-c2ccccc2)c1C(=O)N1CCN(c2ccccn2)CC1 | 17.0 | -4.1 | -0.4 | -2.2 | 3.5 | 2.9 | i | 4.9 | 4.2 | 4.8
CCOC(=O)Cc1csc(NC(=O)CSc2cc(Cl)ccc2Cl)n1 | -20.4 | -7.2 | 1.9 | 6.8 | -3.5 | -1.3 | i | -5.8 | -6.8 | -2.1
O=C(CCNS(=O)(=O)c1cccc2nsnc12)N1CCN(c2ccccn2)CC1 | 8.3 | -17.1 | . | . | . | . | . | -2.4 | -0.9 | -0.3
COc1ccc2c(/C=N/Nc3ccc(C(=O)O)cc3)c[nH]c2c1 | 1.2 | 88.1* | -4.8 | -2.2 | -2.2 | 10.0 | i | -7.3 | -8.1 | -16.6
CC(=O)c1ccc(NC(=O)C(C)N(C)CC(=O)Nc2ccc(N3CCOCC3)cc2)cc1 (stereo not given) | 3.0 | 23.6 | -7.6 | -35.4 | -7.7 | 3.5 | i | -1.1 | 1.3 | 3.3
COc1ccc(C2C(C(C)=O)=C(C)N=c3s/c(=C\c4ccco4)c(=O)n32)c(OC)c1 (stereo not given) | 59.8 | -2.3 | . | . | . | . | . | -1.7 | 18.6 | -6.7
Cc1ccc(C)c(-n2c(CNc3ccc(F)cc3)nnc2SCC(N)=O)c1 | 3.9 | -6.3 | -2.5 | -3.1 | 1.2 | -46.4 | i | -5.5 | -11.2 | 3.8
O=C(NC(Nc1ccccn1)C(Cl)(Cl)Cl)c1ccccc1 (stereo not given) | -4.2 | -11.1 | . | . | . | 2.8 | i | 0.4 | 8.8 | -1.0
Cc1cc(C(=O)COC(=O)CC2Sc3ccccc3NC2=O)c(C)n1-c1ccccc1 (stereo not given) | 33.4 | -0.8 | -8.0 | -7.3 | -1.5 | 2.2 | i | 7.2 | -0.5 | 0.3
COc1ccc(/C=N/NC(=O)c2cc(-c3ccc4c(c3)OCO4)n[nH]2)cc1OC | -0.5 | -3.3 | -20.2* | 6.5* | 3.2* | -0.6 | + | 32.1 | -12.4 | -5.6
CC(C)(CO)NS(=O)(=O)c1ccc2c(c1)oc(=O)c1cc(S(=O)(=O)NC(C)(C)CO)ccc12 | 3.4 | -1.5 | . | . | . | . | . | . | -3.9 | -0.5
COCCOC1CCN(C(=O)c2cc(COc3ccc(F)cc3F)on2)CC1 | -3.1 | -3.5 | 1.1 | 10.9 | 0.0 | 0.8 | i | . | -1.6 | -0.2
CN(C)/C=C1/NC(=S)NC1=O | -12.5 | 58.7 | 8.8 | 1.3 | -0.2 | -3.3 | i | 2.6 | -8.3 | -2.8
N#Cc1c(C(F)(F)F)cc(-c2ccc(F)cc2)nc1SCC(=O)O | 16.1 | -11.2 | -26.9 | -29.6 | -1.4 | -1.1 | . | 2.3 | -21.6 | -0.5

4 entries from above, sorted by length of the SMILES, highest first.
SMILES | Calb FLC | ALR inh | rRNA inh HTS | rRNA inh HTS OD600 | rRNA inh HTS RFP | MLL AF4-AF9 inh | FGF22 binding | Beta apoptosis | T cruzi repl | RanGTP-Imp inh
CC(C)(CO)NS(=O)(=O)c1ccc2c(c1)oc(=O)c1cc(S(=O)(=O)NC(C)(C)CO)ccc12 | 3.4 | -1.5 | . | . | . | . | . | . | -3.9 | -0.5
Cc1ccc(C)c(-n2c(CNc3ccc(F)cc3)nnc2SCC(N)=O)c1 | 3.9 | -6.3 | -2.5 | -3.1 | 1.2 | -46.4 | i | -5.5 | -11.2 | 3.8
O=C(NC(Nc1ccccn1)C(Cl)(Cl)Cl)c1ccccc1 (stereo not given) | -4.2 | -11.1 | . | . | . | 2.8 | i | 0.4 | 8.8 | -1.0
CN(C)/C=C1/NC(=S)NC1=O | -12.5 | 58.7 | 8.8 | 1.3 | -0.2 | -3.3 | i | 2.6 | -8.3 | -2.8

Not all compounds are listed; the hit share may differ from the screen's.
